Screens as filed in PubChem BioAssay.
KCNQ2 pot – potentiators of rat KCNQ2 potassium channel; B-score at 10 µM; 0.54% of 310,000 active; Potassium voltage-gated channel subfamily KQT member 2 (Rattus norvegicus), O88943; CHO-K1 KCNQ2, FluxOR thallium flux fluorescence; active compounds read high;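 active means fluorescence ratio B-score at least 3 SD of library B-scores, with initial fluorescence B-score within 3 SD, cut at about 5.3 in these data; same plate scores as AID 2156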;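 further: B-score of peak minus minimum over baseline fluorescence ratio after K+ and Tl+ stimulus; positive B-score means potentiation of KCNQ2 with more thallium influx and brighter signal; only the inactives scoring about 0 or higher are listed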
Target sequence (O88943 whole entry, looked up): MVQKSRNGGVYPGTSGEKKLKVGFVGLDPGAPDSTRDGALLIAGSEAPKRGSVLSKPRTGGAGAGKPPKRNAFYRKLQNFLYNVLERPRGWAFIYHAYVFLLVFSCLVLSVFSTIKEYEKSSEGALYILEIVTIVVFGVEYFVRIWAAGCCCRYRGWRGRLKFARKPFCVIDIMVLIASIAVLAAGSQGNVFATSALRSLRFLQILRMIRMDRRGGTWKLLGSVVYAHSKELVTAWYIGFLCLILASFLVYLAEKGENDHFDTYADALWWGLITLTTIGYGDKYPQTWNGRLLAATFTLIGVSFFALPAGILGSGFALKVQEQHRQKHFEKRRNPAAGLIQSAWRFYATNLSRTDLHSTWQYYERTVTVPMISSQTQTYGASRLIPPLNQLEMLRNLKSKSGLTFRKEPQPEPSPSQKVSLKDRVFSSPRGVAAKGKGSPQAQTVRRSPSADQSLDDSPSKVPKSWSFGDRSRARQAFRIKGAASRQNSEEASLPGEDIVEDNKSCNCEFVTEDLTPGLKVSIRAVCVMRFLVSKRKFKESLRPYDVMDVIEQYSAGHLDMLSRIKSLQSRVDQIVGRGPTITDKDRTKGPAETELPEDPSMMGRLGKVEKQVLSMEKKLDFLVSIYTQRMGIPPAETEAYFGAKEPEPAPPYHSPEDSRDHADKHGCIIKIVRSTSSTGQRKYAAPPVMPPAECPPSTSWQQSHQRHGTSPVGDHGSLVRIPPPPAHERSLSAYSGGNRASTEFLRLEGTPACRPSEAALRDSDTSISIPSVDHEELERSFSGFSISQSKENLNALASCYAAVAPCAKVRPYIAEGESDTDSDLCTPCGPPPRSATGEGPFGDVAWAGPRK
KCNQ2 pot baseline – recorded beside KCNQ2 pot, whose call it bears; B-score; compound at 10 µM; measured here: initial fluorescence intensity artifact check;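 brightness before thallium and not channel activity; 0 = typical well and far values either way flag optical interference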
* = called active by the depositor. Some of the compounds tested; rates above refer to the full screens.

SMILES	KCNQ2 pot	KCNQ2 pot baseline
CCS(=O)(=O)c1ccc2c(c1)N(S(C)(=O)=O)CC(C(=O)NC1CC1)O2 (stereo unspecified)	0.11	-0.01
O=c1c(Cl)c(Cl)cnn1Cc1nnc(-c2ccccc2Br)o1	5.5*	0.01*
O=[N+]([O-])c1cc(S(=O)(=O)C(F)(F)F)ccc1N1CCN(c2ccccc2)CC1	1	-3
CC(=O)c1c(C)[nH]c(C(=O)Nc2cccc3ccccc23)c1C	0.3	-3.2
Cc1ccc(S(=O)(=O)N2CCCC2=O)c(C)c1N(C)S(C)(=O)=O	1.6	0.72
NS(=O)(=O)c1ccc(NC(=O)CSc2nc3ccccc3nc2N2CCOCC2)cc1	0.37	-0.23
Cc1ccc(C)c(N2CCN(C3CCCCC3NS(=O)(=O)c3ccccc3)CC2)c1 (stereo unspecified)	0.09	-0.81
COc1cc(/C=C/c2ccc3cccc(O)c3n2)ccc1O	17*	0.65*
COC(=O)c1[nH]c2cccc(OC)c2c1NC(=O)CN1CC(C)OC(C)C1 (stereo unspecified)	1.8	0.74
CN1CCN(S(=O)(=O)c2cc([N+](=O)[O-])ccc2N2CCCCCC2)CC1	0.33	-0.29
CC(=O)Nc1ccc(-c2cc(-c3ccc(NC(C)=O)cc3)nc(-c3ccc(NC(C)=O)cc3)n2)cc1	1.7	-0.04
N/C(=N\OC(=O)Cc1cccs1)c1cccc([N+](=O)[O-])c1	2.6	0.14
Cc1ccc(C(C)(C)C)c(SCC(=O)Nc2nnc(C)s2)c1	1.4	-0.87
CCOc1cccc(NC(=O)CSc2sc3c(O)cc(=O)[nH]c3c2C#N)c1	0.72	-0.02
O=C(CC1NC(=O)NC1=O)Nc1cccc2ccccc12 (stereo unspecified)	0.45	0.61
CCc1nc(SCc2ccccn2)c2c(=O)n(C)c(=O)n(C)c2n1	1.4	-0.86
Cc1ccc2[nH]c(=O)c(CN(CCO)C(=O)NCc3ccccc3)cc2c1	0.2	-0.2
CC1(C)OC(=O)C(=CNNc2c(Cl)cc(Cl)cc2Cl)C(=O)O1	0.12	0.02
Cc1ccc2oc(-c3cccc(NC(=O)C4CCCO4)c3)nc2c1 (stereo unspecified)	0.32	0.62
CCC(NC(=O)CCc1c(C)c2cc3c(-c4ccccc4)coc3cc2oc1=O)C(=O)O (stereo unspecified)	0.14	1.4
CCCCC(=O)Nc1ccc(S(=O)(=O)Nc2nccc(C)n2)cc1	0.8	-1.2
COC(=O)c1sc2ccccc2c1NC(=O)c1ccc(S(=O)(=O)N2CCCCC2)cc1	0.57	-0.01
Clc1nnc2ccc(-c3ccccc3)nn12	1.2	1
C=CCN(Cc1nc(-c2cc(OC)ccc2OC)oc1C)C1CCS(=O)(=O)C1 (stereo unspecified)	0.2	-0.7
O=C(Nc1cc(S(=O)(=O)N2CCCCC2)ccc1O)c1ccccc1NS(=O)(=O)c1ccc(F)c(F)c1	0.42	-2.4

3 entries out of the list above, arranged by the number in KCNQ2 pot, ascending.
Compound | KCNQ2 pot
Cc1ccc2oc(-c3cccc(NC(=O)C4CCCO4)c3)nc2c1 (stereo unspecified) | 0.32
O=C(CC1NC(=O)NC1=O)Nc1cccc2ccccc12 (stereo unspecified) | 0.45
O=c1c(Cl)c(Cl)cnn1Cc1nnc(-c2ccccc2Br)o1 | 5.5*

Returning to the listing, repeating the three entries before the break.
SMILES	KCNQ2 pot	KCNQ2 pot baseline
Clc1nnc2ccc(-c3ccccc3)nn12	1.2	1
C=CCN(Cc1nc(-c2cc(OC)ccc2OC)oc1C)C1CCS(=O)(=O)C1 (stereo unspecified)	0.2	-0.7
O=C(Nc1cc(S(=O)(=O)N2CCCCC2)ccc1O)c1ccccc1NS(=O)(=O)c1ccc(F)c(F)c1	0.42	-2.4
Cc1cccc(OCCCn2c(CO)nc3ccccc32)c1	0.01	-0.68
Cc1ccc(S(=O)(=O)Nc2ccccc2C(=O)N2CCCCC2)cc1	0.67	-0.63
Cc1[nH]c(=O)c(C#N)cc1-c1ccccc1	1	-1.7
Cc1cc(C(F)F)n2ncc(C(=O)NCc3ccc(F)cc3)c2n1	0.05	0.56
CC(C)=C1SC(N2CCN(c3ccc(C)cc3)CC2)=NC1=O	1.7	2.2
CCOC(=O)C1CCN(C(=O)Cc2c(F)cccc2Cl)CC1	0.53	-1.6
Cc1nn(CCC#N)c2nc(C(F)(F)F)[nH]c(=O)c12	0.13	-1.3
O=C(C1=NOC(CNc2ncc(C(F)(F)F)cc2Cl)C1)N1CCOCC1 (stereo unspecified)	0.01	-1.1
CC(C)NCC(=O)NC12CC3CC(CC(C3)C1)C2	1.5	0.94
CCOC(=O)C1CCN(S(=O)(=O)c2cccc(-c3csc(C)n3)c2)CC1	0.84	2.5
Cc1nnc(-c2ccc(Oc3ccc(Br)cc3)c([N+](=O)[O-])c2)o1	0.42	-0.63
N#Cc1ccc(COC(=O)c2cc(=O)c3ccccc3o2)cc1	1.2	-1.1
C=CCC(CC=C)(NC(=O)c1ccccc1C(=O)O)c1ccccc1	1.1	-1.4
COc1cccc(-c2csc(/C(C#N)=C/Nc3cc4oc5ccccc5c4cc3OC)n2)c1	0.28	-0.68
CC(C)NS(=O)(=O)c1ccc(Br)c(C(=O)OC(C)C(=O)NC2CCCCC2C)c1 (stereo unspecified)	0.93	1.5
CCn1c(CC(=O)Nc2ccc(Cl)c(Cl)c2)nnc1SCc1ccc(C)cc1	0.97	0.03
Oc1c(C(c2cccs2)N2CCC3(CC2)OCCO3)sc2ncnn12 (stereo unspecified)	0.6	0.46
CC(=O)Oc1ccc2c(c1)C(=O)c1ccccc1C2=O	2.1	1.9
Cc1ccccc1N=Cc1cccc(O)c1O	0.04	1.8
COc1ccc(/C=N/NC(=O)CCN2CCN(c3ccccc3)CC2)c(OC)c1OC	0.41	0.04
COc1ccc(N2CCN(C(=O)c3cc(N4C(=O)C5C6CCC(C6)C5C4=O)ccc3Cl)CC2)cc1 (stereo unspecified)	0.11	0.98
CCc1ccc(NC(=O)COC(=O)CCc2nc3cc(S(=O)(=O)N(CC)CC)ccc3n2C)cc1	1.4	-4.6
COc1ccc(Cl)cc1N1C(=NC(=O)C2CCCO2)SC2CS(=O)(=O)CC21 (stereo unspecified)	0.7	-0.51
C=CCc1cccc2cc(C(=O)OCC)c(=O)oc12	1	-0.01
O=C(Nc1ccccc1F)C1CCN(C(=O)NCc2ccccc2)CC1	0.03	-0.02
SMILES	KCNQ2 pot	KCNQ2 pot baseline
Cc1ncc([N+](=O)[O-])n1CC(=O)Nc1ccc2c(c1)OCO2	0.04	0.7
OC(COCc1ccc2c(c1)OCO2)CN1CCN(Cc2ccccc2)CC1 (stereo unspecified)	0.98	0.45
CN1CCN(Cc2nnc(-c3ccccc3)o2)CC1	1.4	-0.48
CSC(=S)N/N=C(\C)c1ccccc1	8.7*	-0.01*
CCn1c2ccccc2c2cc(/C(C)=N/O)ccc21	2.2	-2.3
O=C(Nc1nc2ccccc2c(=O)s1)c1ccc(F)cc1Cl	0.29	0.05
CC(CCc1ccccc1)NC(=O)CCC1CCCC1 (stereo unspecified)	3.3	-0.77
c1ccc(CCN2CN(CCCN3CCOCC3)c3nc4ccccc4n3C2)cc1	0.95	-0.44
CC(=O)NC(Cc1ccccc1)C(=O)N1CCN(C(=O)c2cccs2)CC1 (stereo unspecified)	1.9	-0.27
CC1=C/C(=N\S(=O)(=O)c2ccccc2)C(C(C)C)=CC1=O	0.12	0.21
O=c1cc(CO)occ1OCc1c(F)cccc1Cl	0.23	0.89
CCOc1ccc2[nH]c(=O)c(CN(CC3COCCO3)C(=O)C3CC3)cc2c1 (stereo unspecified)	1.9	1.2
O=C(Nc1ccc2nc(-c3ccc4nc[nH]c4c3)[nH]c2c1)c1cccs1	0.2	0.96
CCn1ncc([N+](=O)[O-])c1C(=O)Nc1nc2cccc(C)c2s1	0.05	-0.59
CC(C)(C)C(=O)C(CO)(Oc1ccc(Cl)cc1)n1cncn1 (stereo unspecified)	0.68	-0.01
CCOC(=O)c1ccc(NC(=O)COc2ccccc2OC)cc1	0.47	-1.7
COc1cc(C2NC(=O)c3ccccc3O2)cc(OC)c1OC (stereo unspecified)	0.03	-0.06
CCNC(=O)/C(C#N)=C/c1c(N2CCCCCC2)nc2ccccn2c1=O	0.18	0.98
Cc1ccc(NC(=O)Cc2nnc(SCC(=O)c3ccc(Br)cc3)n2C)cc1Cl	0.01	-0.3
CCOC(=O)C1(Cc2ccc(OC)cc2)CCN(C(=O)CCc2cnccn2)CC1	1.4	0.03
Cc1cc(-c2ccc(C)c(S(=O)(=O)NCCC(C)N3CCCCCC3)c2)on1 (stereo unspecified)	0.22	-0.07
O=C(Cc1ccc(Cl)cc1)NC1CCCCCC1	2.5	-0.07
O=C(N/N=C/c1ccc(OCc2ccccc2)cc1)c1cc[n+](Cc2ccccc2)cc1	0.47	1
Cc1[nH]nc(SCC(=O)NCc2ccc(F)cc2)c1[N+](=O)[O-]	0.24	0.64
COc1ccc(OCc2nnc(SCC(=O)N3CCCC3)o2)cc1	1.4	0.99

Reprinted at random: 3 compounds from above.
SMILES	KCNQ2 pot	KCNQ2 pot baseline
c1ccc(CCN2CN(CCCN3CCOCC3)c3nc4ccccc4n3C2)cc1	0.95	-0.44
CCc1nc(SCc2ccccn2)c2c(=O)n(C)c(=O)n(C)c2n1	1.4	-0.86
O=C(Nc1nc2ccccc2c(=O)s1)c1ccc(F)cc1Cl	0.29	0.05

Additional records.
SMILES	KCNQ2 pot	KCNQ2 pot baseline
O=C(NNc1c2ccccc2nc2ccccc12)c1ccccc1O	0.23	-0.81
O=C(NC(=S)N1CCc2ccccc21)c1ccco1	2.2	1.1
Cc1ccc(C)c(NS(=O)(=O)c2c(C)[nH]c(C)c2C(=O)N2CCCCC2)c1	0.31	-1.9
COC(=O)CN(c1ccc(OC)c(OC)c1)S(C)(=O)=O	0.78	-1.4
CCCN1CCN(C(=O)CCS(=O)(=O)c2cc3c(cc2Cl)NC(=O)CO3)CC1	0.56	0.01
O=C(N/N=C/c1cccnc1)c1cccc(Cl)c1	0.56	0.24
CN1CCCN(Cc2ccccc2C(F)(F)F)CC1	0.31	0.35
Cc1snc(S(=O)(=O)Cc2ccccc2Cl)c1C#N	1.5	-0.3
Cc1nc(-c2ccccc2)sc1C(N)=O	0.05	-0.34
O=C(NCC1COc2ccccc2O1)Nc1ccccc1F (stereo unspecified)	1.9	-0.94
CN(C(=O)c1ccccc1NC(=O)C(F)(F)F)c1ccccc1	2.5	-2.3
CSc1nsc(SC)c1NC(=O)Nc1ccccc1C	0.55	-0.52
O=C(c1ccccc1)c1ccc(-n2cnnc2)c([N+](=O)[O-])c1	0.04	2.4
COc1ccc(N2CCN(C(=O)CCn3nnc4ccccc43)CC2)cc1	0.81	-0.51
COc1ccccc1C(=O)Nc1ccon1	0.22	0.9
O=C(Nc1ncc2c(n1)-c1ccccc1CC2)c1cccs1	9.7*	0.02*
O=C(CC(c1ccccc1)c1cc(Cl)ccc1O)N1CCOCC1 (stereo unspecified)	0.08	2.9
Cc1ccc(-c2nc(-c3ccncc3)no2)cc1	0.06	1.6
Cc1cc(NCc2ccccn2)n2ncc(-c3ccc(Cl)cc3)c2n1	0.08	-0.01
Cc1nc2ccc(Br)cn2c1C(=O)N/N=C\c1ccccc1Cl	1.6	-1.1
CN(CC(=O)Nc1ccc(Cl)cc1)C(=O)c1ccc(S(=O)(=O)Nc2ccccc2)cc1	0.04	-1.1
COc1ccc(N(CCC#N)C(=O)/C(C#N)=C/c2cccs2)cc1	0.07	0.18
CC(C)(Oc1ccc(Cl)cc1)C(=O)Nc1ccc2oc(-c3ccncc3)nc2c1	0.15	2.4
Cc1onc(NC(=O)c2ccc(Cl)cc2Cl)c1Br	0.02	0.46
CCCN1CCC(=NNc2ccc(S(=O)(=O)N3CCOCC3)cc2[N+](=O)[O-])CC1	0.02	-0.19
SMILES	KCNQ2 pot	KCNQ2 pot baseline
COc1ccc(C2Nc3ccccc3C(=O)N2Cc2ccccc2)cc1OC (stereo unspecified)	0.61	-1.3
NC(=O)CC(NC(=O)c1ccccc1)c1ccc(N2CCN(c3ccccn3)CC2)c([N+](=O)[O-])c1 (stereo unspecified)	0.88	-1.2
CCOc1ccc(NC(=O)CN(C)C(=O)c2cc(S(=O)(=O)N3CCCCCC3)ccc2OC)cc1OCC	1.3	0.03
CN(Cc1ccccn1)C(=O)c1ccc2nc(Cc3cccc(Cl)c3)oc2c1	0.2	-0.19
CCOC(=O)c1ccc2c(c1)[nH]c(=S)n2CC	0.15	-2
OCCC1CN(CC2CC2)CCN1Cc1ccc(F)c(F)c1 (stereo unspecified)	0.02	-0.88
O=C(CN(C(=O)c1csnn1)c1ccc(Cl)cc1)NCc1ccc2c(c1)OCO2	1.6	-0.16
COc1ccc(OCCNC(=O)c2ccccc2Cl)cc1	0.87	-1.5
Cc1ccc(C(=O)NCC(C)NC(=O)c2ccc(C)c(C)c2)cc1C (stereo unspecified)	0.05	-0.94
Fc1cccc(NC(=S)NCc2cccnc2)c1	0.26	2.6
Cc1cccc(/C=N/n2c(-c3ccco3)n[nH]c2=S)c1	1.7	-0.79
CN(C)c1ccc(CNS(=O)(=O)c2csc(C(N)=O)c2)cc1	0.45	2.9
Cc1ccc(O)c(C(=O)c2cnc3c(c2)c(=O)n(C)c(=O)n3C)c1	0.54	-0.46
CC(C)CC(=O)Nc1cccc(-c2nc3ncccc3o2)c1	0.26	0.59
CCOC(=O)C1=C(C)NC(=O)NC1c1ccc(OCC(N)=O)cc1 (stereo unspecified)	1.1	-1.4

Some of the entries so far, with values ahead of the structure:
KCNQ2 pot	KCNQ2 pot baseline	molecule
0.23	0.89	O=c1cc(CO)occ1OCc1c(F)cccc1Cl
1	-0.01	C=CCc1cccc2cc(C(=O)OCC)c(=O)oc12
0.47	-1.7	CCOC(=O)c1ccc(NC(=O)COc2ccccc2OC)cc1
1.9	1.2	CCOc1ccc2[nH]c(=O)c(CN(CC3COCCO3)C(=O)C3CC3)cc2c1 (stereo unspecified)
